Sa growth inh: blocks Staphylococcus aureus growth; S. aureus RN4220 growth, OD600, 20 h, 42 °C; active compounds read low; relative growth, % (concentration not given with the values); 170,000 compounds, 0.53% hits; AID 720641;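 active = growth at 42 °C up to 50% and 20 or more points under that at 30 °C, or under 10% at both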;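 note: 300 nL library stock went into each well; scaled to the means of positive and negative controls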
HCMV NEC inh: inhibitors of HCMV UL50-UL53 nuclear egress complex interaction. HTRF UL50-UL53 interaction, normalized percent inhibition. inhibition, % (concentration not given with the values). 190,000 compounds, 0.15% hits. AID 1918969;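 active = both replicates at 50% or more, plus weaker picks with an unusually low signal ratio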;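 note: stock transfer was 100 nL into about 20 µL; 0% = negative control wells and 100% = wells with untagged competitor protein; inactives centre near -12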
GIV Gai3 FP: GIV-Galpha-i interaction inhibition. 210,000 compounds, 0.42% hits. percent of control (FP), % (no concentration beside the values). Galpha-i3/FITC-GIV peptide fluorescence polarization, 90 min; active compounds read low; scaled: aluminum fluoride 0%, vehicle 100%. AID 1224905. P08753;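 active = replicate mean at 85% of control or lower, very high polarization wells dropped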;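 note: wells of about 15 µL received 100 nL stock; the first replicate is given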
Target sequence (P08753 whole entry, looked up): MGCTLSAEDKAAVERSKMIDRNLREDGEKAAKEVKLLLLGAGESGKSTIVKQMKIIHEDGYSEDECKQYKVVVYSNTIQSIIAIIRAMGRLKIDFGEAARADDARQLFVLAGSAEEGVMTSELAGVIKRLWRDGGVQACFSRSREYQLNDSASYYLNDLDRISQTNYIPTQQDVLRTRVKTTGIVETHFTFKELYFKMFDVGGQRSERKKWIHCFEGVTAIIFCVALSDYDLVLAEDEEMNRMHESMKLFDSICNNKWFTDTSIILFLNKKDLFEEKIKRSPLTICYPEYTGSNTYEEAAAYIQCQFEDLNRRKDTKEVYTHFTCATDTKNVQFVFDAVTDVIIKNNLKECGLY
Sa growth inh second temp: second read-out of Sa growth inh, no call of its own (marks repeat the call); relative growth, %; measured here: growth at 30 °C;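 optical density after 20 h as mean of two plates; 100% = untreated growth and lower means inhibition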
* marks the source's active call; other numbers are inactive results; · = not tested or not shown; & = joins results of further samples.

SMILES | Sa growth inh | Sa growth inh second temp | HCMV NEC inh | GIV Gai3 FP
CC1(C)CC(=O)C=C(NCCCN2CCCC2=O)C1 | 91.1 | 89.9 | -9.3 | 104.8
Cc1[nH]c(C(=O)NC2CCCCC2)c(C)c1S(=O)(=O)N1CCCC1 | · | · | -33.0 | 111.6
CCCCNC(=O)c1cc(-c2ccc3c(c2)OCO3)on1 | 80.4 | 81.2 | -15.0 | 96.7
COc1ccc2cc3cc(C(=O)NCC4COc5ccccc5O4)sc3nc2c1 (stereo not given) | 91.8 | 92.0 | · | 101.2
Cn1nc(C(=O)NC2CCCc3ccccc32)c2c1-c1ccccc1SC2 (stereo not given) | 85.4 | 79.9 | · | 99.2
COCc1cc(C)[nH]c(=O)c1C#N | 108.0 | 85.9 | · | 99.1
O=C(O)c1ccccc1-c1nc2ccccc2s1 | 119.0 | 91.5 | -36.1 | ·
C=CCOc1ccc(C(=O)NC2CC(C)(C)NC(C)(C)C2)cc1 | 95.8 | 97.9 | -25.1 | 106.3
CCc1ccc(-c2csc3ncn(CC)c(=O)c23)cc1 | 103.7 | 85.1 | -21.9 | 102.1
O=C(OCc1cc2c(cc1Br)OCO2)C1CC2CCCC(C1)C2=O (stereo not given) | 98.9 | 90.5 | 4.4 | ·
O=C(NCc1ccccc1)c1ccc2oc(=O)n(Cc3ccccc3)c2c1 | 92.0 | 89.9 | · | 102.3
COC(=O)c1c(C)sc(-c2c(-c3ccc4ccccc4c3)[nH]c3c2c(=O)n(C)c(=O)n3C)c1O | · | · | -24.5 | 154.7
CCOc1ccc2nc(N3CCC(C(=O)NCCc4c[nH]c5ccccc45)CC3)sc2c1 | 107.4 | 82.5 | -2.7 | 105.3
O=C(O)CCSC(=S)N1CCCC1 | 79.6 | 87.6 | · | 96.5
NC(=O)N/N=C/c1ccc(Oc2ccccc2)cc1 | 104.0 | 93.6 | 6.0 | ·
Cc1c(NC(=O)c2c(-c3ccccc3)c(-c3ccccc3)n[nH]c2=O)c(=O)n(-c2ccccc2)n1C | · | · | -19.1 | 106.4
NNC(=O)Oc1ccccc1 | 97.1 | 87.2 | -20.3 | 98.2
CC(C)c1nnc(NC(=O)COc2ccccc2-c2nc(-c3ccccc3)no2)s1 | · | · | 19.7 | 105.7
COc1ccc2cc(C(C)C(=O)Nc3ccc(OC(F)(F)F)cc3)ccc2c1 (stereo not given) | 102.7 | 89.8 | -28.2 | 98.0
CCN(CC)S(=O)(=O)c1ccc(Cl)c(C(=O)N2CCCCCC2)c1 | 108.3 | 98.3 | 1.5 | ·
O=C(Nc1c(C(=O)c2ccc(Cl)cc2)oc2ccccc12)c1cc(=O)c2ccccc2o1 | 103.2 | 90.3 | 1.4 | 107.0
Cn1cc(CCC(=O)N2CCc3ccccc32)c2ccccc21 | 90.6 | 87.7 | -23.9 | 105.4&100.4
Clc1cccc(CSc2ccc(-c3cccs3)nn2)c1 | 86.5 | 87.1 | · | 103.8
CCOC(=O)N1CCN(C(=O)c2ccc3c(=O)n(CCc4ccc(OC)c(OC)c4)c(=O)[nH]c3c2)CC1 | 96.8 | 88.0 | -9.3 | 101.7
O=c1oc2ccccc2n1CCOc1ccccc1Cl | 95.8 | 55.7 | 4.5 | 108.6

Other entries
SMILES | Sa growth inh | Sa growth inh second temp | HCMV NEC inh | GIV Gai3 FP
CCOC(=O)Cn1c(=O)oc2ccc(C)cc21 | 112.8 | 81.6 | · | 98.2
Cc1ccsc1C(=O)N(C)Cc1ccc2c(c1)OCCO2 | 99.3 | 95.0 | 0.6 | ·
CCOc1ccc(NC(=O)CS(=O)(=O)c2ccccc2)cc1 | 103.2 | 104.2 | -7.6 | 105.1
Cc1cc(SCC(=O)O)n2c(nc3ccccc32)c1C#N | 98.1 | 91.6 | -50.5 | ·
CCOC(=O)c1sc2nccc(N(C)C)c2c1N | 75.8 | 49.1 | -122.9 | 95.7
O=C(NCCO)c1nc(NCCO)c2ccccc2n1 | 102.4 | 90.1 | -17.7 | 105.1
C=CCn1c(=O)c(C(=O)Nc2ccc(C(C)C)cc2)c(O)c2ccccc21 | · | · | -23.2 | 108.8
Clc1ccccc1-c1noc(-c2cc(-c3ccccc3)n[nH]2)n1 | · | · | -26.1 | 104.1
CC(Oc1ccc(C(C)(C)C)cc1)C(=O)Nc1onc2c1CCCC2 (stereo not given) | · | · | -20.4 | 105.6
C=CC[N+]1(CC#Cc2ccccc2)CCCCC1 | 87.6 | 78.5 | · | 103.3
CCCCc1ccc(NC(=O)Nc2ccc(N3CCN(C)CC3)cc2)c(C)c1 | 99.9 | 100.3 | 8.3 | 102.4
Cc1ccnc(SCC(=O)O)n1 | 118.1 | 88.7 | 5.1 | ·
COc1ccc(NC(=O)c2c(-c3ccccc3)c(-c3ccccc3)nn(C)c2=O)cc1OC | 95.4 | 80.3 | -34.2 | 98.2
C=Cn1c2ccccc2c2cc(I)ccc21 | 110.6 | 80.6 | -14.3 | 97.8
CCCCC(=O)Nc1cccc2nc(C)ccc12 | 100.2 | 104.0 | -41.4 | 104.9
N#Cc1c(-c2ccco2)cc(-c2ccccc2)nc1SCCN1C(=O)c2ccccc2C1=O | 113.1 | 89.1 | · | 107.8
Cc1ccc(C(=O)Nc2ccc(Cl)cn2)cc1 | 76.6 | 82.1 | -5.6 | ·
N#Cc1ccsc1NC(=O)CCC(=O)O | 86.2 | 73.5 | -20.9 | 92.4
COc1ccc(/C=C2\CCc3ccccc3C2=O)cc1Cn1cccn1 | 99.4 | 92.5 | · | 102.4
Cc1nc2nc(C3CCCCC3)nn2c(C)c1CC(=O)N1CCOCC1 | · | · | 4.2 | 102.7
COc1ccccc1NC(CC(=O)c1ccccc1)C(=O)O (stereo not given) | 99.3 | 84.5 | -9.8 | ·
NS(=O)(=O)c1ccc(CCNCc2ccc(-c3cc(Cl)cc(Cl)c3)o2)cc1 | · | · | -24.2 | 107.2
CCOC(=O)c1c(C)[nH]c(C)c1S(=O)(=O)NC(C)CC (stereo not given) | 98.8 | 93.0 | -21.3 | 102.6
Oc1ccc(NCc2ccccc2OCc2ccccc2F)cc1 | 87.3 | 76.2 | 3.6 | 100.1
CCn1nccc1NC(=O)c1ccc(C(C)(C)C)cc1 | · | · | 2.9 | 108.2

Molecules shown so far that contain a thiophene ring, fused or not:
SMILES | Sa growth inh | Sa growth inh second temp | HCMV NEC inh | GIV Gai3 FP
COc1ccc2cc3cc(C(=O)NCC4COc5ccccc5O4)sc3nc2c1 (stereo not given) | 91.8 | 92.0 | · | 101.2
CCc1ccc(-c2csc3ncn(CC)c(=O)c23)cc1 | 103.7 | 85.1 | -21.9 | 102.1
COC(=O)c1c(C)sc(-c2c(-c3ccc4ccccc4c3)[nH]c3c2c(=O)n(C)c(=O)n3C)c1O | · | · | -24.5 | 154.7
Clc1cccc(CSc2ccc(-c3cccs3)nn2)c1 | 86.5 | 87.1 | · | 103.8
Cc1ccsc1C(=O)N(C)Cc1ccc2c(c1)OCCO2 | 99.3 | 95.0 | 0.6 | ·
CCOC(=O)c1sc2nccc(N(C)C)c2c1N | 75.8 | 49.1 | -122.9 | 95.7
N#Cc1ccsc1NC(=O)CCC(=O)O | 86.2 | 73.5 | -20.9 | 92.4

(list continues)
SMILES | Sa growth inh | Sa growth inh second temp | HCMV NEC inh | GIV Gai3 FP
Cc1ccc(-c2cn3nc(N4CCC(C(=O)NCCN(C)C)CC4)sc3n2)cc1 | 96.4 | 82.6 | -20.7 | 102.5
NC(=O)CN1C(=O)CC(c2ccco2)Sc2ccccc21 (stereo not given) | 98.0 | 77.8 | -37.5 | 104.0
NC1=NC(=O)CC(C(=O)Nc2cc(Cl)ccc2Cl)S1 (stereo not given) | 114.4 | 88.0 | -18.3 | ·
COC(=O)CNc1ccc2c(c1)OCO2 | 115.5 | 80.5 | -19.9 | ·
COC(=O)Nc1ccc2c(c1)N(C(=O)CCN1CCOCC1)c1ccccc1S2 | 109.7 | 93.1 | -23.3 | 101.1
Cc1cc(C)c(NC(=O)/C=N/O)c(Cl)c1 | 93.6 | 99.2 | -38.6 | ·
Cc1ccc2nc(-c3ccc(C)c(NC(=O)CSc4ccc(Cl)cc4)c3)oc2c1 | 89.1 | 98.2 | -17.1 | 108.2
COCC(=O)Nc1ccc(CC#N)cc1 | 98.8 | 92.8 | -5.1 | ·
Cc1nnc(SCc2cc(=O)n3c(C)cccc3n2)s1 | 95.5 | 91.3 | · | 97.0&103.7
CNC(=O)c1ccc(/C=C2/Sc3ccccc3NC2=O)cc1 | 132.4 | 58.6 | · | 100.1
O=c1cc2nc(-c3ccco3)nc(SCc3ccccc3)n2[nH]1 | 95.3 | 79.7 | -58.2 | 102.5
O=S(N1CCCCC1)C12CC3CC(CC(C3)C1)C2 (stereo not given) | 90.6 | 79.5 | 3.7 | 101.4
COc1cccc(CNC(=O)c2ccc3c(c2)nc2n3CCOC2)c1 | 101.2 | 88.0 | · | 103.3
Cc1cccc(-c2nc(CS(=O)CC(=O)NCc3cccs3)c(C)o2)c1 (stereo not given) | 94.4 | 89.2 | · | 103.2
O=C(CC1SC(=NC2CC3C=CC2C3)NC1=O)Nc1ccccc1Cl (stereo not given) | 106.9 | 99.9 | 3.3 | 104.3
O=C(N/N=C\c1ccccc1C(F)(F)F)c1ccccn1 | 96.6 | 94.7 | -22.0 | 108.2
O=C(Nc1ccc2c3c(cccc13)CC2)C1=COCCO1 | 104.2 | 62.9 | -48.5 | 102.3
Cc1csc2ncc(C(=O)N3CCN(C(c4ccccc4)c4ccccc4)CC3)c(=O)n12 | · | · | 8.0 | 109.3
COc1ccc(-c2cn3nc(N4CCCC(C(=O)NCc5ccccc5OC)C4)sc3n2)cc1 (stereo not given) | 117.8 | 85.1 | · | 103.3
c1csc(CSc2nc3ccccc3[nH]2)c1 | 107.7 | 95.0 | · | 100.4
Clc1ccc2c(Nc3ccc4c(c3)OCO4)ccnc2c1 | 93.5 | 66.4 | -12.5 | 97.7
c1ccc(N2CCN(c3ccc(-c4nc5ccccc5[nH]4)cn3)CC2)cc1 | 67.7 | 93.8 | -20.0 | ·
O=C(CN1C(=O)c2cccc3cccc1c23)N1CCc2ccccc21 | 80.3 | 79.8 | -34.5 | ·
CCc1cccc(NC(=O)CN(C)S(=O)(=O)c2ccc3c(c2)n(C)c(=O)c(=O)n3C)c1 | 95.7 | 82.2 | -2.5 | 105.3
CCOc1ccc(-n2c(SCC(=O)OC3CCS(=O)(=O)C3)nc3ccccc32)cc1 (stereo not given) | 108.7 | 96.2 | -12.7 | ·

Next compounds follow.
SMILES | Sa growth inh | Sa growth inh second temp | HCMV NEC inh | GIV Gai3 FP
Fc1ccccc1N1CCN(c2ncnc3c2nc2n3CCCC2)CC1 | 110.9 | 88.2 | · | 108.6
O=C(Nc1ccc2nc3n(c(=O)c2c1)CCCC3)c1ccccn1 | 90.2 | 77.7 | · | 101.4
CC(C)N(C(=O)CSc1nnc(Cc2csc(Nc3ccccc3)n2)o1)C(C)C | 103.4 | 55.5 | -1.3 | 103.9
CCCCNS(=O)(=O)c1ccc2c(c1)CCN2C(=O)CC | 103.0 | 84.8 | -21.9 | 96.2
COc1ccc(CNC(=O)CCn2cnc3onc(-c4cccc(F)c4)c3c2=O)cc1 | · | · | -3.8 | 104.9
CCCCS(=O)c1sc2nc(-c3cccs3)cc(-c3ccccc3)c2c1N (stereo not given) | 12.5* | 46.0* | · | 116.5
Cc1cc(F)ccc1Nc1c(-c2ccccc2)c(=O)c1=O | · | · | -30.7 | 107.6

An excerpt from the list above, for reference:
SMILES | Sa growth inh | Sa growth inh second temp | HCMV NEC inh | GIV Gai3 FP
Fc1ccccc1N1CCN(c2ncnc3c2nc2n3CCCC2)CC1 | 110.9 | 88.2 | · | 108.6
O=C(Nc1ccc2nc3n(c(=O)c2c1)CCCC3)c1ccccn1 | 90.2 | 77.7 | · | 101.4

Screens from PubChem BioAssay.
